From PubChem BioAssay
CSC inhib – blocks cancer stem cells | cancer stem cell-like cells viability, luminescence | inhibition, % at 7.5 µM | 300,000 compounds, 1.1% hits | AID 2717;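 active = mean at 75% or more and at least half the replicates too; tested in HMLE shEcad cells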;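 also: 0% = median of negative and 100% = median of positive control wells; the first replicate is given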
UUG fidelity – yeast start codon fidelity modulation. 350,000 compounds, 0.13% hits. activity score, % at 18.7 µM. S. cerevisiae UUG-firefly luciferase reporter, luminescence/redox ratio;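 active = replicate mean at a twofold rise or more, about +100% in these data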;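 also: firefly luciferase made from a UUG start codon reports start codon fidelity; reporter light over untreated wells divided by growth signal over untreated wells; some hits fall short of that in this replicate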
Env fusion inh – blocks HIV Env-driven cell-cell fusion; HeLa-JRFL Env/CEM21 cell fusion, luciferase; inhibition, % at 12.3 µM; 360,000 compounds, 1.1% hits;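 active = mean replicate inhibition score of at least 50 and every replicate individually at or above 50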;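 also: 0% = plate neutral controls and 100% = maraviroc near 300 nM; one replicate is shown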
PABP FP inh – blocks human PABP binding to poly(A) RNA; 290,000 compounds, 1% hits; P11940; fluorescence polarization; AID 2014; inhibition, % at 35 µM;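 active = 50% or more with normal probe brightness, or confirmed in later tests; about a fifth of its hits are not listed in these tables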;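 also: calls also rest on retests at 20 µM and on dose response follow-up; controls were probe without protein and protein plus probe with vehicle; some compounds called inactive have numbers as strong as hits; many hits fall short of the cut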
Target sequence (P11940 whole entry, looked up): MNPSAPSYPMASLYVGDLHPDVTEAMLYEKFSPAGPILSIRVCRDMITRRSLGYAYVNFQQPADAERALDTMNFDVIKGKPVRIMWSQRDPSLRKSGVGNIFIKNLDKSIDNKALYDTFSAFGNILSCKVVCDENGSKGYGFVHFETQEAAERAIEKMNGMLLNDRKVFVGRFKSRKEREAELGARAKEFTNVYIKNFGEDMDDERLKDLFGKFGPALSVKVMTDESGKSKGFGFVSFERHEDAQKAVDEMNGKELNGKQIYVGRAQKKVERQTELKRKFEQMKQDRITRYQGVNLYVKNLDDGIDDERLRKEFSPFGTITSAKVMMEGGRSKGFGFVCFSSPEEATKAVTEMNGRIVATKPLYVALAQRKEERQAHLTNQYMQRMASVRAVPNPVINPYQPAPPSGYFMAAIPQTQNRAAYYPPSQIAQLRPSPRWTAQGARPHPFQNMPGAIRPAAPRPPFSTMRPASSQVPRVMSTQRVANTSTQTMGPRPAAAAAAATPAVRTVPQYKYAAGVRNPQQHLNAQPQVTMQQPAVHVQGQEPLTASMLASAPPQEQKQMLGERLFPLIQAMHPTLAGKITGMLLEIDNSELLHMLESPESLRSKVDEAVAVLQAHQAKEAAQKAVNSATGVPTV
MT1-MMP act inh – inhibitors of human MT1-MMP activation; P50281; 360,000 compounds, 0.061% hits; HT1080 RFP-PRO-GFP cells, GFP/RFP ratio fluorescence, overnight; percent of plate control window, DMSO zero; GFP/RFP ratio change, % at 20 µM; AID 651647;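 active = GFP/RFP ratio change of at least 30% with cell ATP level not reduced by more than half and red fluorescence within 50% of control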; also: strong numbers were not always called active
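Read-out: GFP/RFP fluorescence ratio; Test system: RFP-PRO-GFP reporter HT1080 cells; Compound dosing: single-point 20 µM compound, 1% DMSO; Times: overnight compound exposure at 37 °C.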
eIF4H FP inh – inhibitors of RNA binding by human eIF4H | 290,000 compounds, 0.94% hits | inhibition, % at 35 µM | Q15056 | eIF4H fluorescence polarization binding assay | AID 2012;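 active = 50% or more with normal probe brightness, or confirmed in later tests; about a fifth of its hits are not listed in these tables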;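 also: calls also rest on retests at 20 µM and on dose response follow-up; 0% = protein and probe with vehicle and 100% = probe without protein; strong numbers were not always called active; many hits fall short of the cut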
Rce1 inhib – yeast Ras-converting enzyme inhibition | Q03530 | yeast membranes, quenched prenylated peptide cleavage fluorescence | calls only | 290,000 compounds, 0.27% hits;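 active = fall in fluorescence gain of 50% or more versus controls, with final raw signal at or below 3038400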;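 also: plate controls were neutral control wells for no effect and wells lacking membranes for full effect; tested at 10 µM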
eIF4H FP inh retest – second read-out of eIF4H FP inh, no call of its own (marks repeat the call); inhibition, %; compound at 20 µM; confirmation average;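 mean of two retest wells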
PABP FP inh retest – second read-out of PABP FP inh, no call of its own (marks repeat the call); inhibition, %; compound at 20 µM; confirmation repeats;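 mean of two retest wells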
MT1-MMP act inh RFP – recorded beside MT1-MMP act inh, whose call it bears; RFP signal change, %; measured here: RFP expression control read;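 0 = vehicle wells; hits needed this value within 50% of zero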
* hit, by the source's call; i = inactive; x = not tested or not shown.

SMILES | CSC inhib | UUG fidelity | Env fusion inh | PABP FP inh | MT1-MMP act inh | MT1-MMP act inh RFP | eIF4H FP inh | Rce1 inhib | others
COc1ccc(-c2cc(C(=O)N/N=C(\C)c3cccnc3)c3ccccc3n2)cc1 | -4 | -10 | -54 | 0 | -2 | 1 | -7 | i
COCc1cc(C)nc(SCC(=O)Nc2ccc(N3CCOCC3)cc2)c1C#N | -4 | -1 | -11 | -4 | -8 | -5 | 1 | i
CCOC(=O)C1(C)CCCCN1C(=O)c1cccc(Cl)c1 (centres undefined) | x | -2 | -14 | x | 2 | 2 | x | x
CCC(C)c1ccc(OCc2ccc(C(=O)O)o2)cc1 (centres undefined) | -4 | x | -8 | 8 | 0 | 2 | -2 | i
Cc1cc(C)cc(NC(=S)NCc2ccc(S(N)(=O)=O)cc2)c1 | -5 | -29 | 25 | -12 | 2 | -1 | -6 | i
Cn1c(=O)c2c(nc(SCCN3CCCCC3)n2Cc2ccc(Cl)cc2)n(C)c1=O | 11 | 1 | -19 | 4 | -7 | -9 | -2 | i
C=CCNC(=O)c1ccc(-c2nc(-c3ccccc3)cs2)cc1 | -26 | x | -99 | -1 | 0 | 1 | 14 | i
CC(C)(C)c1ccc(C(=O)OC/C(O)=C(\C#N)c2nc3ccccc3s2)cc1 | 41 | x | 13 | -9 | -1 | 5 | -2 | i
COc1ccc(S(=O)(=O)Nc2cccc3c2O[C@H](CN(C)C(=O)Nc2ccccc2)[C@@H](C)CN([C@H](C)CO)C3=O)cc1 | x | 3 | -97 | x | 1 | 3 | x | x
Cc1nc2sc(C(c3ccc(Cl)cc3)N3CCN(C(=O)c4ccco4)CC3)c(O)n2n1 (centres undefined) | x | -15 | -25 | -2 | -2 | 0 | 5 | x
COc1ccc(OC)c(C=NNC(=O)c2ccc(NS(=O)(=O)c3cccs3)cc2)c1 | -10 | -13 | -17 | x | 2 | 1 | x | x
Cc1coc2cc3oc(=O)c(CCC(=O)N4C[C@H]5C[C@@H](C4)c4cccc(=O)n4C5)c(C)c3cc12 | -2 | -3 | x | -2 | -1 | -1 | -10 | i
Clc1ccc(Sc2cnc3ccccc3n2)cc1 | 0 | -3 | x | -1 | 1 | 0 | 5 | i
COc1ccc(NC(=O)c2cc3ccccc3o2)cc1OC | -2 | -10 | -3 | 5 | -1 | 1 | 0 | i
CCOc1cc(/C=C2/SC(=S)NC2=O)ccc1OC(=O)c1ccco1 | -9 | x | -17 | 6 | -14 | 15 | -1 | i
CC(Oc1coc(CN2CCN(C(=O)c3ccco3)CC2)cc1=O)c1ccccc1 (centres undefined) | -4 | -16 | -1 | x | -4 | 1 | x | i
O=C(CCC(=O)N(c1ccccc1)C(C(=O)NC1CCCC1)c1ccncc1)Nc1cccnc1 (centres undefined) | -4 | -3 | -79 | 10 | 0 | 0 | 5 | i
CC(C)(C)c1ccc(NC(=O)N2CCCN(c3ccc([N+](=O)[O-])cn3)CC2)cc1 | 8 | 12 | 10 | -3 | -2 | -27 | -5 | i
Nc1nonc1-n1nnc(C(=O)N/N=C/C2CC=CCC2)c1CSc1ccccc1 (centres undefined) | 6 | x | -3 | -15 | 0 | 3 | -11 | i
Cn1c(=O)c2c(ncn2CC(=O)OCC(=O)Nc2ccc(Cl)cc2)n(C)c1=O | 5 | -11 | -49 | -2 | 4 | 10 | 3 | i
CC(C)COC(=O)c1ccccc1N1C(=O)C2C3CCC(C3)C2C1=O (centres undefined) | -13 | x | 8 | -8 | 2 | 5 | 6 | i
COc1ccc(NCC(=O)N/N=C/c2cc([N+](=O)[O-])ccc2N2CCCC2)cc1 | -2 | x | 25 | 40 | -7 | -3 | -4 | i
COc1ccc(-c2nc3c(c(=O)n(C)c(=O)n3C)n2CC2CC(c3ccccc3)=NO2)cc1OC (centres undefined) | x | -6 | x | x | -1 | 2 | x | i
Cc1c(C(=O)N/N=C/c2ccccc2)[nH]c2ccc(Cl)cc12 | 50 | x | -45 | -3 | -10 | -13 | -4 | i
COc1cc2cc(CCCOC(=O)c3ccc(F)cc3)oc(=O)c2cc1OC | -1 | -1 | 30 | x | 3 | 2 | x | x
Cc1nc2ccccc2nc1CSc1nnc(N)s1 | -7 | -4 | x | 0 | 2 | 3 | -8 | i
COC(=O)c1ccc(CSc2cc(C)c3ccccc3n2)o1 | 14 | x | 12 | 8 | -5 | 1 | 14 | i
CCOc1ccc(CCNC(=O)c2cc3sccc3n2C)cc1OCC | -12 | -10 | 14 | -1 | 6 | -5 | -9 | i
COc1ccccc1Cc1c(-c2ccc(OC)c(OC)c2)nc2c3ccccc3ccn12 | x | 12 | -3 | x | -5 | -7 | x | x
COc1ccc(C(=O)N2CCN(Cc3ccccc3C)CC2)cc1OC | -9 | -17 | 27 | 4 | 11 | 5 | 3 | i
c1ccc(OCCOc2ccccc2-c2nnco2)cc1 | -5 | -11 | -14 | 6 | -11 | -3 | -15 | i
CC(c1ccccc1)n1c(SCC(=O)N2CC(=O)Nc3ccccc32)nc2ccccc2c1=O (centres undefined) | x | x | 5 | -2 | -17 | -17 | -19 | i
CCc1ccccc1S(=O)(=O)Cc1ccc(C(=O)NC2CCCC2)o1 | -5 | -7 | -1 | 0 | 1 | 0 | -1 | i
CCOC(=O)N/N=C\c1ccc([N+](=O)[O-])o1 | 2 | 10 | -36 | 16 | -3 | 0 | 22 | i
CCCNC(=O)C1(C)CCCN(C(=O)COc2ccc(C(C)(C)C)cc2)C1 (centres undefined) | x | 5 | 4 | x | 2 | 2 | x | x
O=C(NNC(=O)c1c(O)c2ccccc2[nH]c1=O)c1ccccc1Br | 26 | 9 | 11 | 1 | 20 | 2 | -11 | i
Cc1ccccc1-n1ncc2c1CC(C)(C)CC2NC(=O)CCn1cncn1 (centres undefined) | x | -8 | -19 | -1 | 1 | 5 | 5 | i
CN(Cc1ccccc1)S(=O)(=O)c1ccc(Cl)c(C(=O)NCc2cccnc2)c1 | -13 | -13 | 7 | x | 3 | -11 | x | i
CCOC(=O)c1cc2c(=O)c3ccccc3oc2nc1C | 11 | -16 | -20 | -8 | 0 | 2 | -3 | i
CCCc1ncc(C(O)c2cccc(OC)c2OC)n1C (centres undefined) | -10 | -6 | -14 | -5 | 4 | 1 | -4 | i

The closing 2 compounds of the section above open the next one:
SMILES | CSC inhib | UUG fidelity | Env fusion inh | PABP FP inh | MT1-MMP act inh | MT1-MMP act inh RFP | eIF4H FP inh | Rce1 inhib | others
CCOC(=O)c1cc2c(=O)c3ccccc3oc2nc1C | 11 | -16 | -20 | -8 | 0 | 2 | -3 | i
CCCc1ncc(C(O)c2cccc(OC)c2OC)n1C (centres undefined) | -10 | -6 | -14 | -5 | 4 | 1 | -4 | i
O=C(NCc1ccco1)C1CCCN(S(=O)(=O)c2ccc(Br)cc2)C1 (centres undefined) | -14 | x | -10 | 1 | 2 | 2 | 5 | i
CCOC(CNC(=O)c1cccn2c(=O)c3c(C)c(C)sc3nc12)OCC | -8 | -13 | 3 | -4 | 1 | 1 | 3 | i
CC(=O)NC(Cc1ccccc1)C(=O)OCC(=O)c1ccc(Br)cc1 (centres undefined) | -14 | -24 | 5 | -2 | 1 | 8 | -3 | i
CCNc1nc(Cl)nc(NNC(=O)C(C)Oc2ccccc2)n1 (centres undefined) | -6 | -23 | -73 | -1 | -3 | 1 | -2 | i
CC(Sc1nc2ccccc2s1)C(=O)c1c(N)n(C)c(=O)n(C)c1=O (centres undefined) | -1 | x | 3 | -5 | 2 | 4 | 4 | i
O=C(OCc1csc(Nc2ccccc2)n1)c1ccc(Cl)cc1 | x | x | -3 | -15 | 1 | 3 | -14 | i
COc1ccc(OCC(=O)Nc2ccc(S(=O)(=O)Nc3nc(C)cc(C)n3)cc2)cc1 | -3 | x | 10 | -6 | x | x | -2 | i
COc1ccc(C(C)=O)cc1CSCCC#N | -3 | x | x | 12 | 1 | 4 | 6 | i
O=C(Nc1ccccc1)c1ccc(COc2ccccc2)cc1 | -8 | -4 | -29 | 5 | 1 | 2 | 13 | i
COCCn1cc(-c2csc(N)n2)c2ccccc21 | -14 | -20 | -83 | 22 | -24 | 3 | 12 | i
CN(c1ccc(C(=O)N2CCOCC2)cc1)S(=O)(=O)c1cccs1 | -2 | -14 | 1 | 13 | 0 | 0 | -1 | i
Cn1c(SCC(=O)Nc2ccc3c(c2)OCCO3)nnc1C1CC1 | 0 | -16 | 2 | 1 | 1 | 6 | 1 | i
Cc1ccc(S(=O)(=O)N2CCN(C(=O)COC(=O)C3CCC3)CC2)c(C)c1 | 0 | -6 | 14 | x | 3 | 2 | x | i
O=C(CN1C(=O)c2cccc3cccc1c23)Nc1ccc(S(=O)(=O)Nc2nccs2)cc1 | 3 | x | 3 | -4 | x | x | 18 | i
CCOc1ccc(OCCC(=O)OCC(=O)N2CCN(S(=O)(=O)c3ccc(Cl)cc3)CC2)cc1 | 28 | -4 | -3 | 16 | 4 | 5 | 40 | i
CCOC(=O)N1CCN(C(=O)C2CCC(=O)N(CCCN3CCCC3=O)C2)CC1 (centres undefined) | -14 | -10 | -35 | 2 | 3 | 5 | -12 | i
COc1ccc(CCNC2=C(Cl)C(=O)N(CCc3ccccc3)C2=O)cc1OC | -1 | -7 | 12 | 7 | -5 | -11 | -6 | i
COc1cc(OC)c(C(=O)N(CCc2ccccc2)Cc2ccccc2)cc1OC | 2 | 0 | 19 | -10 | -1 | -5 | -12 | i
Cc1ccc(C(=O)Nc2cc(Cl)ccc2N2CCCCC2)s1 | 20 | x | x | -3 | -3 | -6 | 82 | i | eIF4H FP inh retest=-11;PABP FP inh retest=6
CC1Cc2ccccc2N1C(=O)CN1CCC(n2nnc3cc(C(F)(F)F)ccc32)CC1 (centres undefined) | 24 | -4 | x | 5 | -7 | -23 | 2 | i
c1ccc(-c2nc(NC3CC3)nc(-n3ccnc3)n2)cc1 | -3 | -15 | -192 | -5 | 5 | 0 | 1 | i

By substructure: the entries above with two or more sulfur atoms.
SMILES | CSC inhib | UUG fidelity | Env fusion inh | PABP FP inh | MT1-MMP act inh | MT1-MMP act inh RFP | eIF4H FP inh | Rce1 inhib | others
Cc1cc(C)cc(NC(=S)NCc2ccc(S(N)(=O)=O)cc2)c1 | -5 | -29 | 25 | -12 | 2 | -1 | -6 | i
COc1ccc(OC)c(C=NNC(=O)c2ccc(NS(=O)(=O)c3cccs3)cc2)c1 | -10 | -13 | -17 | x | 2 | 1 | x | x
CCOc1cc(/C=C2/SC(=S)NC2=O)ccc1OC(=O)c1ccco1 | -9 | x | -17 | 6 | -14 | 15 | -1 | i
Cc1nc2ccccc2nc1CSc1nnc(N)s1 | -7 | -4 | x | 0 | 2 | 3 | -8 | i
CC(Sc1nc2ccccc2s1)C(=O)c1c(N)n(C)c(=O)n(C)c1=O (centres undefined) | -1 | x | 3 | -5 | 2 | 4 | 4 | i
CN(c1ccc(C(=O)N2CCOCC2)cc1)S(=O)(=O)c1cccs1 | -2 | -14 | 1 | 13 | 0 | 0 | -1 | i
O=C(CN1C(=O)c2cccc3cccc1c23)Nc1ccc(S(=O)(=O)Nc2nccs2)cc1 | 3 | x | 3 | -4 | x | x | 18 | i

The list is partial (hit frequency here may not be typical).
